From PubChem BioAssay
ugtP null kill = growth inhibition of S. aureus ugtP deletion strain; 330,000 tested, 0.54% active; growth inhibition, % (no concentration beside the values); S. aureus RN4220 ugtP deletion, OD600 growth, 16 h; some inactives read as strong as hits;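 active = z-score under -3 and OD600 up to 0.15 on both plates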;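 note: plate controls were untreated wells for no effect and antibiotic for full effect; wells of about 80 µL received 100 nL stock; the first replicate is given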
BJeLR viability = BJeLR cell viability loss | inhibition, % (test concentration not listed) | BJeLR (HRASV12) viability, CellTiter-Glo ATP luminescence, 48 h; reference of the scale not given here | 300,000 tested, 0.17% active;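 active = replicate mean above 50%; inconclusive = above 50% but judged a plate artefact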;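 note: 50 nL library stock added to about 25 µL; numbers are from one replicate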
PrP UTR inh = inhibition of PrP 5' UTR reporter expression. 340,000 tested, 0.35% active. inhibition, % (concentration not given with the values). cell-based PrP 5' UTR mRNA reporter, plate reader;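 active = every replicate at 50% or more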;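 note: 0 = median of the neutral control wells; tested in H4 reporter cells; numbers are from one replicate; inactives centre near -14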
Mtb hypoxia rep = inhibitors of hypoxia-regulated fluorescent reporter in Mycobacterium tuberculosis; M. tuberculosis hypoxia-regulated fluorescent reporter, fluorescence; fluorescence inhibition, % (test concentration not listed); 300,000 tested, 0.1% active; AID 1159583;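 active = 35 to 45% if threefold the growth effect, above 45% if 1.5-fold the growth effect; inactive = the rest, general growth blockers included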;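 note: wells of about 50 µL received 100 nL stock; 0% = vehicle wells and 100% = reference inhibitor wells; whole bacteria with a GFP reporter of the hypoxia response; strong numbers were not always called active; many hits fall short of the cut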
RN4220 kill = kills Staphylococcus aureus RN4220; S. aureus RN4220 growth, OD600, 16 h; inhibition, % (no concentration beside the values); 330,000 tested, 0.33% active;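 active = z-score of -3 or lower and OD600 up to 0.18 on both plates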;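 note: plate controls were untreated cells for no effect and reference antibiotic for full effect; stock transfer was 100 nL into about 80 µL; one replicate is shown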
Bead autofluor = counter-screen for toxin protease inhibitors: compound fluorescence | fluorescence intensity (concentration not given with the values) | 360,000 tested, 3.1% active | compound autofluorescence counterscreen, microsphere flow cytometry; stronger effect = higher value;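 active = at least 3 SD above the mean of all compounds, about 16000 in these data; inconclusive = too few beads counted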;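 note: 100 nL of 1 mM stock went into each well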
Mtb hypoxia rep growth = recorded beside Mtb hypoxia rep, whose call it bears; growth inhibition, %; measured here: M. tuberculosis growth (absorbance);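 0% = vehicle and 100% = reference antibiotic; read after six days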
* = called active by the depositor; & = joins results of further samples.

For CC(C)N(C(=O)CN1CCC(c2nc3ccccc3[nH]2)CC1)C(C)C the results were ugtP null kill 2, BJeLR viability -1, PrP UTR inh 1, Mtb hypoxia rep -3, RN4220 kill -1.8, Bead autofluor 4614 and Mtb hypoxia rep growth -1.
`CC(=O)Nc1ccc(S(=O)(=O)NCc2csc(C)n2)cc1` gave ugtP null kill 7, BJeLR viability 17, PrP UTR inh -27, Mtb hypoxia rep 3, RN4220 kill 5.3, Bead autofluor 9647 and Mtb hypoxia rep growth 1.
For CC(C)CNS(=O)(=O)c1ccc(OCC(=O)Nc2ccc(F)cc2F)cc1 the results were ugtP null kill 11, BJeLR viability -4, PrP UTR inh -6, RN4220 kill 0.0 and Bead autofluor 2791.
Screening COC(=O)C1CCN(C(=O)CN(C)Cc2ccc(C(C)(C)C)cc2)CC1 returned ugtP null kill 4, BJeLR viability -3, PrP UTR inh -11, Mtb hypoxia rep 9, RN4220 kill 7.0, Bead autofluor 3751 and Mtb hypoxia rep growth 5.
CCOC(OCC)P(=O)(C(C)C)C(C)C was read as ugtP null kill -4, BJeLR viability -8, PrP UTR inh 1, RN4220 kill -4.3 and Bead autofluor 4317.
Screening COc1ccc(N2C(=O)C(Cl)=C(N3CCOCC3)C2=O)cc1 returned ugtP null kill -2, BJeLR viability 18, PrP UTR inh -10, Mtb hypoxia rep -2, RN4220 kill 2.4 and Mtb hypoxia rep growth -1.
For COc1ccc(-c2[nH]ncc2/C=N/NC(=O)c2cccc([N+](=O)[O-])c2)cc1OC the results were BJeLR viability 7, PrP UTR inh -6 and Bead autofluor 2375.
Screening O=C1CC(NS(=O)(=O)c2cccnc2)CN1c1ccc(Cl)cc1 (stereo unspecified) returned ugtP null kill 11, BJeLR viability 6, PrP UTR inh -18, Mtb hypoxia rep 4, RN4220 kill 2.5, Bead autofluor 5468 and Mtb hypoxia rep growth -2.
`COc1ccc(C(=O)C2CCCN(Cc3cc(C)c(O)c(C)c3)C2)c(OC)c1` (stereo unspecified) gave ugtP null kill 3, BJeLR viability 2, PrP UTR inh -12, Mtb hypoxia rep 4, RN4220 kill 4.3, Bead autofluor 3350 and Mtb hypoxia rep growth -3.
Screening CCOC(=O)c1cc(COc2cc(Cl)cc(Cl)c2)on1 returned ugtP null kill 6, BJeLR viability 0, Mtb hypoxia rep -15, RN4220 kill 6.4 and Mtb hypoxia rep growth 3.
For CC1CCN(C(=O)CSc2nnc(-c3ccncc3)n2C)CC1 the results were ugtP null kill 5, BJeLR viability 14, PrP UTR inh -17, Mtb hypoxia rep 5, RN4220 kill 4.7, Bead autofluor 8300 and Mtb hypoxia rep growth 5.
`CCc1ccc(OCC(=O)NNC(=O)c2c(CC)noc2C)cc1` gave ugtP null kill -1, BJeLR viability 1, PrP UTR inh -14, Mtb hypoxia rep 8, RN4220 kill 0.3, Bead autofluor 6188 and Mtb hypoxia rep growth -7.
For CN(Cc1ccc(Cl)cc1Cl)C(=O)CN1C(=O)NC2(CCCC2)C1=O the results were ugtP null kill -3, BJeLR viability 0, PrP UTR inh -13, Mtb hypoxia rep -3, RN4220 kill 0.0, Bead autofluor inconclusive and Mtb hypoxia rep growth 4.
For C/C(N)=C(/C#N)C(=O)CSc1nnc(Cc2ccccc2F)n1N the results were ugtP null kill 2&8, BJeLR viability 8, PrP UTR inh -26&-14, Mtb hypoxia rep 6, RN4220 kill 2.1&2.6, Bead autofluor 3835&3189 and Mtb hypoxia rep growth 6.
For CC1Cc2ccccc2N1S(=O)(=O)c1cccc(C(=O)N2Cc3ccccc3CC2C(N)=O)c1 (stereo unspecified) the results were ugtP null kill -2, PrP UTR inh -15, Mtb hypoxia rep 5, RN4220 kill 7.3, Bead autofluor 3680 and Mtb hypoxia rep growth 2.
`COc1ccc([N+](=O)[O-])cc1COc1ccc2c(-c3ccccc3)cc(=O)oc2c1` gave ugtP null kill 6, BJeLR viability 4, PrP UTR inh -11, RN4220 kill 3.7 and Bead autofluor 2699.
For COc1ccccc1-c1noc(-c2ccncc2)n1 the results were ugtP null kill -3, BJeLR viability 0, PrP UTR inh -33, RN4220 kill 3.9 and Bead autofluor 4719.
`c1ccc2c(c1)CC1(CCCC1)n1nnnc1-2` gave ugtP null kill 1, BJeLR viability 8, PrP UTR inh -13, Mtb hypoxia rep 7, RN4220 kill -0.8, Bead autofluor 9724 and Mtb hypoxia rep growth 5.
`COc1ccc(/C=C/C(=O)C(C)(C)C)cc1OC` gave BJeLR viability 10, PrP UTR inh -13 and Bead autofluor 3751.
Screening Cn1cc(/C=C/c2cc[n+](C)cc2)c2cc(F)ccc21 returned ugtP null kill 21, BJeLR viability 21, PrP UTR inh -8, Mtb hypoxia rep 22, RN4220 kill 1.3, Bead autofluor 5902 and Mtb hypoxia rep growth 8.
`COc1cc(/C=C/C(=O)Nc2cccc(S(=O)(=O)NC3=NCCCCC3)c2)ccc1OCC#N` gave ugtP null kill -9, BJeLR viability 1, PrP UTR inh -16, Mtb hypoxia rep -7, RN4220 kill -0.3, Bead autofluor inconclusive and Mtb hypoxia rep growth -6.
COC(=O)c1nnn(CC(=O)NC(=O)Nc2cccc(C)c2C)c1C(=O)OC was read as ugtP null kill 1, BJeLR viability 8, PrP UTR inh -26, Mtb hypoxia rep -6, RN4220 kill 4.4, Bead autofluor 6891 and Mtb hypoxia rep growth -7.
For Cc1cc(C)n(CC(O)CN2c3ccccc3Sc3ccccc32)n1 (stereo unspecified) the results were ugtP null kill -25, BJeLR viability -1, PrP UTR inh -4, Mtb hypoxia rep -4, RN4220 kill -4.3, Bead autofluor 3521 and Mtb hypoxia rep growth -3.
Screening COc1cc(/C=N/N=C/c2cc(OC)c(O)c(OC)c2)cc(OC)c1O returned BJeLR viability 11, PrP UTR inh -10 and Bead autofluor 2103.

A draw from above in order of formula weight, highest first.
For CC(C)CNS(=O)(=O)c1ccc(OCC(=O)Nc2ccc(F)cc2F)cc1 the results were ugtP null kill 11, BJeLR viability -4, PrP UTR inh -6, RN4220 kill 0.0 and Bead autofluor 2791.
For CC1CCN(C(=O)CSc2nnc(-c3ccncc3)n2C)CC1 the results were ugtP null kill 5, BJeLR viability 14, PrP UTR inh -17, Mtb hypoxia rep 5, RN4220 kill 4.7, Bead autofluor 8300 and Mtb hypoxia rep growth 5.
Screening CCOC(=O)c1cc(COc2cc(Cl)cc(Cl)c2)on1 returned ugtP null kill 6, BJeLR viability 0, Mtb hypoxia rep -15, RN4220 kill 6.4 and Mtb hypoxia rep growth 3.

Entries above containing a tert-butyl group:
Screening COC(=O)C1CCN(C(=O)CN(C)Cc2ccc(C(C)(C)C)cc2)CC1 returned ugtP null kill 4, BJeLR viability -3, PrP UTR inh -11, Mtb hypoxia rep 9, RN4220 kill 7.0, Bead autofluor 3751 and Mtb hypoxia rep growth 5.
`COc1ccc(/C=C/C(=O)C(C)(C)C)cc1OC` gave BJeLR viability 10, PrP UTR inh -13 and Bead autofluor 3751.

(continued)
O=C(c1ccco1)N1CCN(c2ccc(S(=O)(=O)N3CCCC3)cc2)CC1 was read as ugtP null kill -7, BJeLR viability -14, PrP UTR inh -15, Mtb hypoxia rep -3, RN4220 kill -3.9, Bead autofluor 22603* and Mtb hypoxia rep growth 11.
For CC(C)(CC(=O)O)CC(=O)N1CCCN(c2nc3ccc(Cl)cc3s2)CC1 the results were ugtP null kill -2, BJeLR viability -3, PrP UTR inh -19, Mtb hypoxia rep 0, RN4220 kill 0.7, Bead autofluor 5234 and Mtb hypoxia rep growth 3.
CC1CCCC(C)N1Cc1nc(Cc2ccccc2Cl)no1 (stereo unspecified) was read as ugtP null kill 7, Mtb hypoxia rep 8, RN4220 kill 10 and Mtb hypoxia rep growth 1.
O=C(NN=Cc1cccnc1)c1ccc(O)cc1 was read as ugtP null kill 6, Mtb hypoxia rep 9, RN4220 kill -1.4 and Mtb hypoxia rep growth -1.
`CCOC(=O)C(=NNc1ccccc1)Sc1nnc(CCc2ccccc2)n1-c1ccccc1` gave ugtP null kill 4, Mtb hypoxia rep 4, RN4220 kill 1.4 and Mtb hypoxia rep growth 6.
Screening Cc1cc(S(=O)(=O)N2CCCCC2CCNC(=O)C(=O)NCC2CCCO2)ccc1F (stereo unspecified) returned BJeLR viability -2, PrP UTR inh -12 and Bead autofluor 5594.
Screening Cc1ccc(S(=O)(=O)NCC(=O)OCC(=O)Nc2ncc(Cl)cc2Cl)cc1 returned ugtP null kill -11, BJeLR viability -8, PrP UTR inh -9, RN4220 kill 3.1 and Bead autofluor 3868.
Screening COc1ccc(NC(=O)CSCC(=O)Nc2cc(Cl)ccc2N2CCOCC2)cc1 returned ugtP null kill 8, BJeLR viability -7, PrP UTR inh -21, Mtb hypoxia rep 6, RN4220 kill 9.2, Bead autofluor 6032 and Mtb hypoxia rep growth -13.
Screening CCn1nnc(NC(=O)c2cccnc2Cl)n1 returned ugtP null kill 12, BJeLR viability -5, PrP UTR inh -15, RN4220 kill -2.0 and Bead autofluor 3531.
Cc1cccc(C(=O)NC2CCCc3ccccc32)c1 (stereo unspecified) was read as ugtP null kill 12, BJeLR viability 4, Mtb hypoxia rep 10, RN4220 kill 7.8 and Mtb hypoxia rep growth 1.
CCn1cc(CN2CCN(CCC(C)C)C(CCO)C2)c2ccccc21 (stereo unspecified) was read as ugtP null kill 4, BJeLR viability -2, PrP UTR inh -29, Mtb hypoxia rep 13, RN4220 kill 4.4, Bead autofluor 3057 and Mtb hypoxia rep growth 8.
For CC(NC(=O)CN(c1cccc(C(F)(F)F)c1)S(C)(=O)=O)c1ccccc1 (stereo unspecified) the results were ugtP null kill 1, BJeLR viability 3, PrP UTR inh 0, Mtb hypoxia rep 1, RN4220 kill 2.3, Bead autofluor 4340 and Mtb hypoxia rep growth -6.
Screening CCN1CCCC(OC(=O)c2cc(-c3ccccc3Cl)nc3ccccc23)C1 (stereo unspecified) returned ugtP null kill 23, BJeLR viability 18, PrP UTR inh -10, Mtb hypoxia rep -2, RN4220 kill -2.6, Bead autofluor 2095 and Mtb hypoxia rep growth -2.
`O=C(Nc1nccs1)c1cc2sccc2n1Cc1ccc(Cl)cc1` gave ugtP null kill 7, BJeLR viability 7, PrP UTR inh -14, Mtb hypoxia rep -5, RN4220 kill -1.6, Bead autofluor 6017 and Mtb hypoxia rep growth 1.
For CCOC(=O)C(=NNc1ncnc2ccccc12)c1ccc(OC)cc1 the results were ugtP null kill 13, Mtb hypoxia rep 0, RN4220 kill 1.0 and Mtb hypoxia rep growth 13.
For C/C(=N/NC(=O)c1cccs1)c1cccc(N)c1 the results were BJeLR viability 5, PrP UTR inh -51 and Bead autofluor 4624.
Screening Cc1ccc(Sc2ncccc2COC(=O)Nc2ccccc2)cc1 returned ugtP null kill -7, BJeLR viability 1, PrP UTR inh 0, RN4220 kill -4.5 and Bead autofluor 3732.
For Cc1cnccc1CNC(=O)CC1C(=O)NCCN1CC(C)(C)C (stereo unspecified) the results were ugtP null kill 9, BJeLR viability 0, PrP UTR inh -15, Mtb hypoxia rep 2, RN4220 kill 5.6, Bead autofluor 4233 and Mtb hypoxia rep growth 1.
Screening O=C(Nc1ccnn1C1CCN(C2CCCCC2)CC1)c1cccc(F)c1 returned ugtP null kill 9, BJeLR viability -1, PrP UTR inh -6, Mtb hypoxia rep 7, RN4220 kill 3.1, Bead autofluor 5893 and Mtb hypoxia rep growth 0.
CCC(=O)Nc1ccc(NC(=O)CSc2nnnn2C2CCCC2)cc1C was read as ugtP null kill -2, BJeLR viability -19, PrP UTR inh -22, Mtb hypoxia rep -16, RN4220 kill -0.6, Bead autofluor 3544 and Mtb hypoxia rep growth -3.
`Cc1cc(C(=O)CSc2nnnn2-c2ccccc2)c(C)n1CCc1ccccc1` gave ugtP null kill 2, BJeLR viability 1, PrP UTR inh -9, Mtb hypoxia rep 5, RN4220 kill 6.3, Bead autofluor 4310 and Mtb hypoxia rep growth 9.
`O=C(c1ccccc1)N1CCN(C(=O)N2CCCCC2)CC1` gave ugtP null kill -1, BJeLR viability -4, PrP UTR inh -16, Mtb hypoxia rep 18, RN4220 kill -7.7, Bead autofluor 2876 and Mtb hypoxia rep growth 8.
CCOC(=O)CN1CCC(c2cc(-c3ccc(Cl)cc3)n[nH]2)CC1 was read as ugtP null kill -7, BJeLR viability 19, PrP UTR inh -4, Mtb hypoxia rep -21, RN4220 kill 0.3, Bead autofluor 4070 and Mtb hypoxia rep growth 5.
For CC1(C)Cc2cccc(OCC(N)=O)c2O1 the results were ugtP null kill 0, BJeLR viability 1, PrP UTR inh -14, RN4220 kill 5.3 and Bead autofluor 2129.
COCCNC(=S)Nc1cc2oc3ccccc3c2cc1OC was read as ugtP null kill -5, BJeLR viability 0, PrP UTR inh -11, Mtb hypoxia rep 9, RN4220 kill 0.8, Bead autofluor 5989 and Mtb hypoxia rep growth 1.
